D2 ag: agonists of human D2 dopamine receptor (beta-arrestin); hit rate 0.084% among 360,000; P14416; DiscoveRx PathHunter D2 beta-arrestin, luminescence, 90 min; 100% = 57 uM dopamine signal; activation, % (test concentration not listed); in the data active = activation above about 40%; inconclusive = about 15% to 40%; inactive = below about 15%; also: compound concentration not given in the record; the text of the record calls up to 30% inactive
Target sequence (P14416 whole entry, looked up): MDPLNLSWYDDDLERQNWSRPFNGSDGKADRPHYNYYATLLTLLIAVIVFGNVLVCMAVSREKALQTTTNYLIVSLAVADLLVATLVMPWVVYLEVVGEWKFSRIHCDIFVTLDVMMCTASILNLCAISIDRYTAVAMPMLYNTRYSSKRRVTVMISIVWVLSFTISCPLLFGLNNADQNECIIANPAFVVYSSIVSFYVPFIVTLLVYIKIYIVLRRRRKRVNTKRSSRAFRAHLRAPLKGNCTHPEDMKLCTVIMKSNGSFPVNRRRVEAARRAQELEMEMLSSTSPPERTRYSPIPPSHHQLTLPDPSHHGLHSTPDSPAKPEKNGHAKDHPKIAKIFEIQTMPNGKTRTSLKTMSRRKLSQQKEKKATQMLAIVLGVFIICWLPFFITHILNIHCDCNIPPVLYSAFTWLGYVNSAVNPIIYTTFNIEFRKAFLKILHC
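DiscoveRx PathHunter D2 beta-arrestin cells (2,100/well) attached overnight, then compound-stimulated 90 min at 37 C in HBSS/10 mM HEPES/0.1% Tween-20 buffer; beta-galactosidase complementation read by luminescence after 1 h at ambient temperature. Dopamine 57 uM final (EC100) as control.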
D2 potentiator: potentiates the human D2 dopamine receptor allosterically. potentiation, % (concentration not given with the values). P14416. AID 624464. DiscoveRx D2 beta-arrestin cells, luminescence, 90 min; 100% = 57 uM dopamine signal. hit rate 0.23% among 360,000; active = potentiation of 50% or more; inconclusive = 30% to 50%; inactive = 30% or less;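 also: compound concentration not given in the record; tested on top of an EC20 dose of dopamine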
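D2 cells co-treated with compound plus 50 nM dopamine (EC20) for 90 min at 37 deg C to detect potentiation. Beta-arrestin recruitment was read as enzyme-fragment luminescence after 1 h at ambient temperature. Full response was set by 57 uM dopamine.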
Six1-Eya2 inh: blocks human Six1 binding to Eya2 | activity change, % (test concentration not listed) | AlphaScreen GST-Six1/His-Eya2 binding, biochemical; hits give low values; control for the full effect not named in the record | hit rate 0.56% among 360,000 | Q15475+O00167 | AID 651725; in the data active = activity change below about -65%; inconclusive = about -30% to -65%; inactive = above about -30%; also: % is scaled to controls: 0 for no effect and ±100 for the full control effect; compound concentration not given in the record
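AlphaScreen luminescence read after one hour at 37 °C in darkness. Pin-transferred compounds met GST-Six1 and His-Eya2 protein (5X stock 250 nM/500 nM) plus glutathione donor and Ni-chelate acceptor beads (5X, 50 ug/mL).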
TRPML1 ag: activates the human TRPML1 channel. Q9GZU1. TRPML1-expressing cells, Ca2+ dye fluorescence, FDSS; host cell line not named in the record; reference of the full effect not given here. activation, % (no concentration beside the values). hit rate 0.12% among 410,000. AID 624414; in the data active = activation above about 50%; inconclusive = about 30% to 50%; inactive = below about 30%; also: 0% is about no effect; the text of the record puts the active cut at 80%
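Tetracycline-induced TRPML1-DL cells are seeded and incubated overnight before loading with a no-wash Ca2+ dye and quencher. Agonist activity is taken from the 110 s fluorescence read following compound pin-transfer on an FDSS, before EC80 54-4 challenge.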
PINK1 expr mod: changes PINK1 expression. PINK1 immunofluorescence, high-content cytometry, 24 h. AID 624263. Potency, µM (top dose mostly 76.6 µM), for inactives: top-dose activation (PINK1 increase), actives largely listed as activators. hit rate 0.2% among 410,000; active = well fitted activation curve with a large enough effect; inconclusive = small, poorly fitted or top-dose-only effect; inactive = flat fitted curve, though single readings scatter; cell line not stated here;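 also: potency is read from the fitted curve at half-maximal effect; % of control where 0% means no effect; nearly all actives have a fitted effect of over 65% in size; a mitochondrial uncoupler was the plate control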
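Readout is PINK1 immunofluorescence, quantified alongside mitochondrial, cell and nuclear markers by laser-scanning microplate cytometry. Cells from a stable line were exposed to compound titrations (5 concentrations) for 24 hours, with CCCP controls.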
TRPML1 blocker: human mucolipin-1 channel inhibition. TRPML1-inducible cells, Ca2+ dye fluorescence, FDSS; hits give low values; inhibition of EC80 agonist-evoked calcium signal. activity change, negative = inhibition, % (concentration not given with the values). hit rate 0.02% among 390,000; in the data active means activity change below about -50%; inconclusive means about -30% to -50%; inactive means above about -30%;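 also: stimulus is agonist 54-4 at its EC80 concentration; % is scaled to controls: 0 for no effect and ±100 for the full control effect; compound concentration not given in the record; the text of the record puts the active cut at -80%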
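TRPML1-DL cells, Tet-induced overnight (~16 h, 37 °C) at 1,500 cells/well, were loaded with Ca8 no-wash dye plus quencher for 45-90 min at room temperature. Compounds were pinned during FDSS kinetic reading; agonist 54-4 at EC80 (4 uM final) then added.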
The depositor's hits bear a star; ? = inconclusive; . = not tested or not shown; [ ] = dose if it differs, or a comment. No enrichment for hits, and some 1% of all compounds hit somewhere here.

Structure	D2 ag	D2 potentiator	Six1-Eya2 inh	TRPML1 ag	PINK1 expr mod	TRPML1 blocker
O=C(COc1ccccc1F)Nc1nnc(SCc2cc(=O)c3ccccc3[nH]2)s1	.	.	.	2.3	2.3%	-8
Cc1ccc(NC(=S)NCc2cccs2)c(C)c1	-1.4	-1	-1	0.7	5.9%	6
Cc1cccc(C)c1OCC(=O)NCc1ccccc1	2.3	-5	14	0.6	-1.1%	3
CC(=O)OC(C(=O)NCc1ccc(F)cc1)c1ccccn1 (stereo unspecified)	-2.5	-3	-1	-0.2	5.6%	-15
COc1ccc(-c2noc(-c3ccc(Cl)cc3)n2)cc1	0.1	-2	8	0.5	11%	-12
Cc1ccc(NC(=O)CN(C)Cc2c(O)ccc3ccccc23)cc1	7.3	1	13	-0.3	2.0%	-5
CC1=CCC(C(=O)O)C(C(=O)Nc2cccnc2)C1 (stereo unspecified)	6.1	-1	0	-1.0	-1.1%	-3
CC(=O)c1c(C(C)=O)c(C)n(NC(=O)c2ccccc2Cl)c1C	-3.7	-14	-13	-0.4	-1.6%[38.3 µM]	-7
Cc1oc2cc(O)ccc2c(=O)c1-c1ccccc1	-6.6	-1	2	0.8	-1.6%	40
Cc1nc2c(=O)n(C)c(=O)n(C)c2nc1Cl	-6.0	-14	-24	-0.2	-3.2%	51
COc1ccc(-c2nc3c(C#N)c[nH]n3c2NC2CCCC2)cc1	.	.	.	-0.5	0.2%	7
COCCNC(=S)N(CCCO)Cc1cc2cc3c(cc2[nH]c1=O)OCO3	0.3	-5	-8	-0.5	1.2%	7
CSc1nnc(-c2ccc([N+](=O)[O-])cc2)o1	2.2	11	2	0.8	-2.1%	1
CCN1CCN(c2cc(C)c3cc(NC(=S)N(CC)CC)ccc3n2)CC1	-3.0	-17	-11	-0.3	3.4%	9
COc1ccc(-c2nn(C)c(=O)c3ccccc23)cc1NC(=O)COc1ccc(C)cc1	4.2	3	-1	-0.9	11%	-17
COC(=O)C1=C(C)N=C2SCCC(=O)N2C1c1ccc(C(=O)OC)cc1 (stereo unspecified)	-2.9	2	-1	-0.4	5.4%[38.3 µM]	-11
O=C(NCCc1cn2cccnc2n1)C1CCC(=O)N(Cc2ccccc2F)C1 (stereo unspecified)	1.0	0	4	-0.3	0.5%	-12
CCc1ccccc1NC(=O)CN(C1CCCCC1)S(C)(=O)=O	-1.8	-9	-8	0.2	1.7%	-16
COc1ccc(C(=O)NCCSCc2cccc(Cl)c2)cc1OC	-5.5	-8	-2	1.0	0.1%	-3
O=C(CSc1ccc(F)cc1)Nc1ccc(C2SCCS2)cc1	0.9	-3	-2	-0.3	10%	4
Cc1ccccc1CNC(=O)c1cc2ccccc2o1	1.1	-1	2	1.8	0.0%	-15
COc1ccc(C2CCCN2C(=S)Nc2cccc(Cl)c2)cc1OC (stereo unspecified)	-3.4	-1	-12	-0.1	5.5%	-2
Cc1cc(C)c(S(=O)(=O)c2ccccc2C(=O)O)c(C)c1	-0.3	-2	4	0.1	2.1%	-5
OCCNc1nc(Nc2cccc(O)c2)nc2ccccc12	3.5	-8	?	0.4	16%	0
COc1ccccc1C(=O)NC(=O)COC(=O)CCOc1ccc(C)cc1	-5.5	-9	7	-0.3	0.9%	-8

Next part
Structure	D2 ag	D2 potentiator	Six1-Eya2 inh	TRPML1 ag	PINK1 expr mod	TRPML1 blocker
COc1ccccc1C(=O)Nc1ccnn1C1CCN(Cc2cnc(N(C)C)s2)CC1	-5.8	-17	5	-0.5	1.1%	19
CCCC/C=C/C(NC(=O)CCc1ccccc1)c1ccccc1 (stereo unspecified)	-5.3	-18	21	1.4	9.2%	19
O=C1C(=O)N(CCO)C(c2cccc(F)c2)/C1=C(\O)c1ccc(Cl)cc1 (stereo unspecified)	0.2	5	-7	-1.2	0.3%	13
CN(C)CCN(Cc1ccccc1)C(c1ccnc2ccccc12)c1nnnn1-c1ccc2c(c1)OCCO2 (stereo unspecified)	.	.	-11	0.1	0.9%	.
COCCn1c(N)c(N(Cc2ccccc2)C(=O)c2ccc(C#N)cc2)c(=O)[nH]c1=O	-2.0	-4	3	-0.6	2.2%	28
O=C(O)c1cc(N/N=C/c2ccc3c(c2)OCO3)ccc1Cl	4.4	1	-20	-0.2	-0.8%	-3
CC(C)CCNC(=O)NC(=O)CN1C(=O)NC2(CCCCC2)C1=O	1.3	12	2	0.4	-1.3%	-4
O=C1CN(C(=O)COC(=O)c2cc(Cl)ccc2[N+](=O)[O-])c2ccccc2N1	-0.5	-12	-8	-0.4	3.7%	-6
COc1cc(NC(=O)c2[nH]cnc2C(N)=O)cc(C(=O)Nc2cccc(C(F)(F)F)c2)c1	9.6	12	?	-0.6	-0.4%	14
Cn1cc(-c2cc3n(n2)CCC(=O)N3CC(=O)O)c2ccccc21	.	.	.	0.1	1.2%	-14
CC(C)Cn1cnc2c(=O)oc3ccccc3c21	-1.8	-14	-19	0.3	-1.6%	-6
Cc1cc(C)cc(NC(=O)CN2C(=O)CSc3ccc(S(=O)(=O)N(C)C)cc32)c1	.	.	.	0.5	0.4%	3
Cc1sc(NC(=O)C2C3C=CC(C3)C2C(=O)O)c(C(N)=O)c1-c1ccc(C(C)C)cc1 (stereo unspecified)	0.0	1	-7	3.1	0.0%	0
COC1=C(c2ccccc2)C(=O)c2ccccc2C1=O	?	11	?	-0.3	6.4%	-1
Cc1ccc(C(C)(C)C)cc1S(=O)(=O)Nc1cccc(S(=O)(=O)NC2=NCCC2)c1	3.7	4	5	2.4	0.8%	?
CCCCNC(=O)CSc1nc2ccc(NC(=O)CSc3nnc(COc4ccccc4C)n3C)cc2s1	2.6	2	0	-1.3	18%	-11
Cc1ccc(C(C(=O)NC(C)(C)C)N(C(=O)c2csnn2)C2CC2)cc1 (stereo unspecified)	-3.2	1	5	0.4	-0.8%	4
CCN(CC)S(=O)(=O)c1nnc(NC(=O)c2ccc(Br)cc2)s1	.	.	.	-0.6	1.0%	6
CCOc1ccc(CC(=O)NNC(=S)NCCc2ccccc2)cc1	-4.6	-11	0	2.3	0.7%	-2
CCn1c(CC(=O)Nc2cccc(OC)c2)nnc1SCC(=O)Nc1nccs1	2.4	-4	-10	-0.3	-1.5%[38.3 µM]	-1
O=C(O)CCN1C(=O)C2CCCCC2C1=O (stereo unspecified)	-1.9	-22	-2	-0.5	-1.0%	3
COc1ccc(C2CC(c3ccc(Cl)cc3)Nc3nc(NC(=O)c4ccco4)nn32)cc1 (stereo unspecified)	0.6	2	-4	0.2	-2.1%	0
Cc1ccccc1NC(=O)N1CCc2cc(S(=O)(=O)N3CCC(C)CC3)ccc21	.	.	.	0.1	-0.3%	5
CN(C(=S)NC(=O)CCCOc1ccc(Cl)cc1Cl)c1ccccc1	0.5	-14	-2	-0.3	.	6
CC(C)(C)C(=O)NC1(C(F)(F)F)NC(=O)N(Cc2ccccc2)C1=O (stereo unspecified)	-3.1	-2	-18	0.0	0.2%	-3

Remaining list, next part:
Structure	D2 ag	D2 potentiator	Six1-Eya2 inh	TRPML1 ag	PINK1 expr mod	TRPML1 blocker
CCOc1cc(N2CCOCC2)c(OCC)cc1NC(=O)c1cc(S(=O)(=O)N2CCOCC2)ccc1Cl	2.7	-13	2	-0.4	11%	5
Cc1oc(-c2cccc(F)c2)nc1CN1CCCN(C(=O)c2ccco2)CC1	-1.2	-33	-12	-0.7	2.8%	-4
CCCCn1c(N)c(N(CC(C)C)C(=O)C2CCN(S(=O)(=O)c3ccc(F)cc3)CC2)c(=O)[nH]c1=O	-1.6	-3	-7	0.5	-0.5%	11
OC[C@H]1NC[C@@H](O)[C@@H]1O	-3.1	12	6	-1.0	-0.7%	0
CC(=O)N1CCN(C(=O)CN2C(=O)NC(C)(c3ccc4ccccc4c3)C2=O)CC1 (stereo unspecified)	-0.5	-12	8	1.2	-1.1%	7
O=C(NN=Cc1ccccc1)c1ccccc1	-1.6	-10	0	-0.1	1.3%	15
O=C(COc1c(Cl)cc(Cl)cc1Cl)c1ccc(Cl)cc1	-1.4	-21	8	1.7	12%	28
COc1ccccc1CN1CCNC(=O)C1CC(=O)NCCCn1cccn1 (stereo unspecified)	1.8	-2	3	-0.5	3.2%	-13
Cc1ccc(CC(=O)NCC2CCCCC2)cc1	0.4	0	18	.	0.8%	.
COC(=O)c1c(C#N)c(N)nc2c1CCC2	-0.7	-10	7	-0.4	1.3%	2
O=C(c1cc2ccccc2cc1O)N1CCN(c2cccc(Cl)c2)CC1	11	6	-15	1.2	1.5%	-2
Cc1cccc(Cc2nnc(CCC(=O)N3CCCCC3c3nccs3)o2)c1 (stereo unspecified)	1.0	-1	2	0.5	-1.9%	-3

Source: PubChem BioAssay
